2A firefly – FMDV 2A StopGo reporter, firefly signal; HEK cells with a luciferase reporter of 2A StopGo recoding; 0.23% of 120,000 active; Potency, µM (top dose mostly 57.5 µM), without a hit: top-dose signal change, negative = less light; active = well fitted falling curve with a large enough effect; inconclusive = small, poorly fitted or top-dose-only effect; inactive = no such curve, though single readings can be large or run the other way; note: nearly all actives have a fitted effect of over 60% in size; overnight with compound
StopGo RLuc – FMDV 2A StopGo reporter, Renilla signal. HEK cells with a luciferase reporter of 2A StopGo recoding. Potency, µM (highest dose often 57.5 µM), for the others: at the highest dose signal change, negative = less light. 0.32% of 120,000 active; active means well fitted falling curve with a large enough effect; inconclusive means small, poorly fitted or top-dose-only effect; inactive means no such curve, though single readings can be large or run the other way; note: nearly all actives have a fitted effect of over 55% in size; overnight with compound
An asterisk follows results filed as active; ? = inconclusive; [ ] = remark or other dose. % is set by controls: 0 for no effect and ±100 for the full control effect; potency is the fitted concentration of half-maximal effect.

SMILES	2A firefly	StopGo RLuc
Cn1c(=O)c2c(nc(SCC(=O)O)n2Cc2ccccc2)n(C)c1=O	-2%	-9%
COCCN(Cc1ccco1)C(=O)c1cccc(S(=O)(=O)N2CCN(Cc3ccccc3)CC2)c1	14%	19%
Cc1nc(SC(C)C#N)c2c(=O)n(C)c(=O)n(CC(C)C)c2n1 (stereo not given)	3%	1%
COc1ccccc1CNC(=O)C(C)C	5%	-3%
Cc1cccc(C(=O)NCCc2csc(C)n2)n1	28%	9%
COc1ccccc1CNC(=O)CCCn1c(=O)c2ccccc2n(Cc2ccccc2F)c1=O	-3%	-7%
COC(=O)c1ccc(COC(=O)c2cc3c(s2)CCCCC3)o1	?	-3%
CCn1nnc2cc(C(=O)Nc3ccc(C)c(Cl)c3)ccc21	104%[activator]	1%
O=C(NC1CCCCC1)c1ccc2c(c1)N(Cc1ccc(F)cc1)C(=O)c1ccccc1S2(=O)=O	2%	5%
CCCCCn1nc(C(=O)N2CCCC2c2nc3ccccc3s2)c2ccccc2c1=O (stereo not given)	-4%	4%
Cc1ccc(C)c(Sc2ccc(NC(=O)c3cccc(C)c3C)cc2)c1	0%	23%
O=C(O)CNS(=O)(=O)c1cc(C(F)(F)F)cc(C(F)(F)F)c1	4%	14%
CCOc1ccc(-n2c(SCc3ccc(C(=O)OC)o3)nc3c([nH]c4ccccc43)c2=O)cc1	-5%	-12%
O=C(Nc1ccc2c(c1)CCC2)c1c(F)c(F)c(F)c(F)c1F	97%[activator]	4%
COc1ccc(-c2coc3cc(OCC(=O)N4CCN(C(C)=O)CC4)ccc3c2=O)cc1	24%	2%
COC(=O)c1ccc(C)c(NC(=O)C2CC3CCC2C3)c1 (stereo not given)	23%	-7%[1.06 µM]
Cn1ccc2cc(S(=O)(=O)N3CCC(C(=O)N4CCOCC4)CC3)ccc21	5%	8%
COc1ccc(C2CC(=O)Oc3c2c(=O)oc2ccccc32)c(OC)c1OC (stereo not given)	-9%	-14%
N#Cc1cccc(NC(=O)c2cc3c(s2)CCCC3)c1	0%	34%[activator]
CCOCCn1c(CN2CCCC(C)C2)nc2c1c(=O)n(C)c(=O)n2C (stereo not given)	4%	4%

Structural class, the compounds so far containing an aryl thioether with sulfur outside any ring
SMILES	2A firefly	StopGo RLuc
Cn1c(=O)c2c(nc(SCC(=O)O)n2Cc2ccccc2)n(C)c1=O	-2%	-9%
Cc1nc(SC(C)C#N)c2c(=O)n(C)c(=O)n(CC(C)C)c2n1 (stereo not given)	3%	1%
Cc1ccc(C)c(Sc2ccc(NC(=O)c3cccc(C)c3C)cc2)c1	0%	23%
CCOc1ccc(-n2c(SCc3ccc(C(=O)OC)o3)nc3c([nH]c4ccccc43)c2=O)cc1	-5%	-12%

Further records follow:
SMILES	2A firefly	StopGo RLuc
CC(NC(=O)/C=C/c1ccc(Cl)cc1)c1ccc(NC(N)=O)cc1 (stereo not given)	33%[activator]	4%
Cc1c(Cl)cccc1N1CCn2c1nc1c2c(=O)n(CC(=O)O)c(=O)n1C	-23%	-20%
CC(=O)Nc1ccc(NC(=S)NC(NC(=O)c2cccc(C)c2)C(Cl)(Cl)Cl)cc1 (stereo not given)	7%	63%[activator]
CN(C)/C=C\C(=O)c1ccc(F)cc1	51%[activator]	12%
CCOc1cc(/C=C(/C#N)C(=O)Nc2ccccc2C(=O)O)ccc1OC	236%[activator]	-7%[1.06 µM]
COC(=O)c1ccc2c(=O)n(CCCCCC(=O)NCCc3ccccc3)c(=O)[nH]c2c1	74%[activator]	8%
CCCC(=O)Nc1ccc(-c2csc(NC)n2)cc1	208%[activator]	106%[activator]
CCc1ccc2c(CN(C)CCOc3ccccc3F)cc(=O)oc2c1	47%[activator]	60%[activator]
O=C(NCCCc1nc2ccccc2n1Cc1cccc(Cl)c1)c1ccco1	?	-9%
CNc1nc(-c2ccccc2)c(C(=O)Nc2ccccc2)s1	22%	-12%
CCOc1cccc(C(=O)N(Cc2ccc(F)cc2)Cc2ccco2)c1	-13%	25%
CC/C(=N\NC(=O)c1ccc(C(C)(C)C)cc1)c1ccc(C)cc1	93%[activator]	46%[activator]
CSc1cccc(NC(=O)CN(c2ccccc2)S(=O)(=O)N(C)C)c1	-2%	22%
Cn1cnc2c1c(=O)n(CCCSCc1cccc3ccccc13)c(=O)n2C	-8%	12%
O=C(/C=C/Sc1ccccc1)c1ccc(Br)cc1	161%[activator]	9%
CCCCc1ccc(NC(=O)N2CCN(Cc3ccc(Cl)s3)CC2)cc1	8%	3%
CCNC(=O)NC(=O)CN(C)c1ccccc1F	-7%	0%
COc1ccc(C2c3c(-c4ccc(F)cc4)n[nH]c3C(=O)N2c2ccccc2)cc1OC (stereo not given)	9%	21%
COCCCNC(=O)c1ccc(-n2c(-c3ccccc3)cc3c2CCCCC3)cc1	49%[activator]	8%
CCOC(=O)C1CCN(C(=O)CSc2nnc(-c3ccc(C)cc3)n2N)CC1	-4%	-15%
CC(=O)N1c2ccc(S(=O)(=O)N3CCC(C(=O)Nc4cccc(Cl)c4C)CC3)cc2CC1C (stereo not given)	-13%	-10%
CN(C(=O)Cn1cnc2onc(-c3ccc(F)cc3)c2c1=O)c1ccccc1Cl	-10%	-17%
CC(NC(=O)c1nn(C)c(=O)c2ccccc12)c1ccc(Cl)cc1Cl (stereo not given)	?	19%
Cc1cc(C)n(-c2nnc(Nc3ccc(C)c(C)c3)c3ccccc23)n1	-7%	171%[activator]
Cc1cc(C)c2oc(C(=O)Nc3ccc(C)c(C)c3)cc(=O)c2c1	-3%	-15%
CCOc1ccc(C(=O)Nc2cccc(NC(=O)c3ccco3)c2)cc1Cl	-13%	-10%
CCc1ccc(C(=O)N2CCN(CCc3ccccc3)CC2)cc1	57%[activator]	-17%
CCc1ccc2oc(=O)cc(CN3CCN(c4ccc(F)cc4)CC3)c2c1	18%	7%
CCC(=O)Oc1ccc2c(=O)c(Oc3cccc(OC)c3)c(C(F)(F)F)oc2c1	?	?
CCOCCCNc1nc2ccccc2nc1NS(=O)(=O)c1ccccc1	3%	20%
CC(Nc1ccc([N+](=O)[O-])c2cnccc12)C12CC3CC(CC(C3)C1)C2 (stereo not given)	-6%	-9%
CCOc1ccc(-c2cc3nc(C4CCN(C(=O)OC(C)(C)C)CC4)c(C(=O)Nc4ccc(C)cc4C)cn3n2)cc1	-3%	0%
CC1(C)CC(=O)C2=C(C1)NC1=C(C(=O)c3ccccc31)C2c1cccc(Cl)c1 (stereo not given)	?	?
O=C(/C=C/N1CCC(Cc2ccccc2)CC1)C(F)(F)F	-16%	?
Cc1c(CCC(=O)NCc2ccc3c(c2)OCO3)c(=O)oc2cc(O)ccc12	-4%	0%
O=C(/C=C/c1ccccc1Cl)NNC(=O)C1CCCCC1	0%	30%
Cc1ccc(C)c(S(=O)(=O)N2CCN(CC(=O)NC(=O)NC(C)(C)C)CC2)c1	-4%	-7%
O=C(c1ccccc1)C1CCN(C(=O)c2ccc(C(F)(F)F)nc2)CC1	5%	5%
CCCCCCn1c(/C=C/c2ccccc2)nc2ccccc21	78%[activator]	5%
CC(C)CC(=O)NCCCN1CCCC1	10%	-9%

Some of the entries so far, with bars between the fields.
SMILES | 2A firefly | StopGo RLuc
CN(C(=O)Cn1cnc2onc(-c3ccc(F)cc3)c2c1=O)c1ccccc1Cl | -10% | -17%
CC1(C)CC(=O)C2=C(C1)NC1=C(C(=O)c3ccccc31)C2c1cccc(Cl)c1 (stereo not given) | ? | ?
Cc1cc(C)c2oc(C(=O)Nc3ccc(C)c(C)c3)cc(=O)c2c1 | -3% | -15%
CC(Nc1ccc([N+](=O)[O-])c2cnccc12)C12CC3CC(CC(C3)C1)C2 (stereo not given) | -6% | -9%
CCC(=O)Oc1ccc2c(=O)c(Oc3cccc(OC)c3)c(C(F)(F)F)oc2c1 | ? | ?

Compound profiles, from the list above. Screens in order: 2A firefly	StopGo RLuc
CC(NC(=O)c1nn(C)c(=O)c2ccccc12)c1ccc(Cl)cc1Cl (stereo not given) reads ?	19%
O=C(c1ccccc1)C1CCN(C(=O)c2ccc(C(F)(F)F)nc2)CC1 reads 5%	5%
Cc1cc(C)c2oc(C(=O)Nc3ccc(C)c(C)c3)cc(=O)c2c1 reads -3%	-15%

The list continues:
SMILES	2A firefly	StopGo RLuc
Cc1cccc(CSCCNC(=O)C2CCN(S(=O)(=O)Cc3ccccc3)CC2)c1	-13%	-2%
Cc1ccc(CNC(=O)CCS(=O)(=O)c2cc3c(cc2Cl)NC(=O)CO3)cc1	-2%	3%
O=C(/C=C/Nc1ccccc1F)C(F)(F)F	5%	11%
COc1ccc(/C=C(/C#N)C(=O)c2c[nH]c3cccc(C)c23)cc1	-1%	52%[activator]
Cc1ccc(Cl)cc1N1CCN(C(=O)CCSCc2ccccc2F)CC1	1%	-4%
CC(C)=CCC[C@@](C)(O)[C@H]1CC=C(C)CC1	1%[11.5 µM]	-5%
Cc1ccc(NC(=O)CN2C(=O)CSc3ccc(S(=O)(=O)N4CCCC4)cc32)c(C)c1	-15%	36%[activator]
CC(=O)Nc1cccc(NC(=O)COC(=O)c2ccccc2OCc2cccc(Br)c2)c1	5%	-5%
COC(CNC(=O)CS(=O)Cc1nc(-c2ccccc2Cl)oc1C)OC (stereo not given)	15%	22%
COc1ccc(-c2cc(C(=O)Oc3cccc(C)c3)c3ccccc3n2)cc1	25%	2%
Cc1ccc(N(CC(=O)Nc2ccc(Br)cc2)S(=O)(=O)c2cccs2)cc1	-16%	0%
Cc1ccc(CN(Cc2ccco2)C(=O)COc2cccc(C)c2C)o1	-19%	35%[activator]
CCc1ccccc1NCc1nnc2n1CCCCC2	-18%	0%
COC(=O)c1ccccc1NC(=O)CSc1n[nH]c(C)n1	-8%	3%
N#C/C(=C/c1cc2ccccc2o1)c1nc2ccccc2[nH]1	205%[activator]	21%
CCn1c2ccccc2c2cc(NC(=O)COc3cccc(C)c3)ccc21	-18%	-10%
CC(=O)N/N=C/c1cc(Cl)ccc1OCCOCCOc1ccc(C)cc1	11%	12%
O=C(Nc1ccccc1)Nc1c(NC2CCCC2)c2ccccc2oc1=O	8%	8%
CCOc1ccccc1-n1c(N)c(C(=O)OC)c2nc3ccccc3nc21	4%	-15%
CCOCCCNC(=O)Cn1c(=O)c2c(ncn2CCOC)n(Cc2ccccc2)c1=O	0%	-6%
Cc1cccc(-c2noc(CNC(=O)COc3cc(C)cc(C)c3C)n2)c1	-2%	2%
CCOC(=O)c1c(NC(=O)COc2cc(C)ccc2C(C)C)sc2c1CCCC2	-1%	6%
COC(=O)c1cnn(-c2ccc(C(=O)Nc3cccc(Cl)c3C)cc2)c1N	9%	-7%
Cc1nc(CC(=O)Nc2ccc(C(N)=O)cc2)cs1	-7%	-8%
O=C(CSc1c2c(nc3ccccc13)CCC2)Nc1cccc(C(F)(F)F)c1	-11%	123%[activator]
CCCCNC(=O)CCCn1c(=O)c2ccccc2n(Cc2ccc(Cl)cc2)c1=O	-8%	5%
Cc1ccccc1CN1c2ccccc2S(=O)(=O)c2ccccc21	-16%	-9%
O=C(/C=C/c1cccc(F)c1)Nc1ccc(Cl)c(C(F)(F)F)c1	?	?
COc1ccc(N(C(=O)c2cccs2)C2C=CS(=O)(=O)C2)c(OC)c1 (stereo not given)	-6%	-10%
Cc1ccc(C(=O)NNC(=O)C2CCCCC2)cc1Cl	0%	27%
CN(C)CCNC(=O)Cn1nc(N2CCN(c3ccccc3)CC2)ccc1=O	-11%	-12%
CCOC(=O)c1c(NC(=O)C(C)Sc2cn(CCNC(=O)c3ccc(OCC)cc3)c3ccccc23)sc2c1CCC2 (stereo not given)	-3%	-4%
CC/C(=C(\c1ccccc1)c1ccc(OCCN(C)C)cc1)c1ccccc1	-17%	2%
CC(C)CCN(C(=O)CN1CCc2ccccc21)c1c(N)n(Cc2ccccc2)c(=O)[nH]c1=O	2%	5%
CC(=O)c1ccc(NC(=O)CCn2nc(C)c(S(=O)(=O)N3CCC(C)CC3)c2C)cc1	-21%	-5%
O=C(O)c1csc2c1sc1ccccc12	65%[activator]	25%
CCCCS(=O)(=O)CC(=O)O	4%	6%
COc1cc(OC)cc(-n2c(=O)c3ccccc3n(Cc3ccccc3C#N)c2=O)c1	-16%	-17%
O=[N+]([O-])c1cccc(/C=C/c2nc3nc4ccccc4nc3n2-c2cccc(C(F)(F)F)c2)c1	3%	-10%
CCN(CC(=O)N(C)C)Cc1ccc(F)c2cccnc12	21%	-11%

Quoted from the results shown for reference:
SMILES	2A firefly	StopGo RLuc
Cc1cccc(-c2noc(CNC(=O)COc3cc(C)cc(C)c3C)n2)c1	-2%	2%
CCOC(=O)c1c(NC(=O)COc2cc(C)ccc2C(C)C)sc2c1CCCC2	-1%	6%
COC(=O)c1cnn(-c2ccc(C(=O)Nc3cccc(Cl)c3C)cc2)c1N	9%	-7%

(next part)
SMILES	2A firefly	StopGo RLuc
Cc1cc(-c2ccc(C)c(S(=O)(=O)N3CCN(c4cccc(C(F)(F)F)c4)CC3)c2)on1	-11%	2%
Cc1ccc(C(=O)NCc2ccccc2)o1	31%[activator]	1%
CCOc1c(Br)cc(/C=C(/C#N)C(=O)OCCOC)cc1OC	7%	-4%[1.06 µM]
CCCn1nc(C(=O)NN2C(=O)NC3(CCCCC3)C2=O)c2ccccc2c1=O	4%	1%
CCCn1nc(C(=O)Nc2ccc3c(c2)OCCO3)c2ccccc2c1=O	222%[activator]	62%[activator]
CCOC(=O)c1ccc(NC(=O)Cn2c3ncccc3c(=O)n2-c2ccc(C)c(C)c2)cc1	-17%	0%

These rows are one share of the data; rates above refer to the full screens.
